Source: PubChem (National Center for Advancing Translational Sciences (NCATS))
NS1 inh: inhibitors of influenza NS1 protein function. AID 2326. S. cerevisiae slowed by influenza A NS1, growth recovery by OD600. 0.4% of 270,000 active. Potency, µM (series often up to 46.1 µM), without a hit: at the highest dose activity, positive = more growth; further: actives are rising curves; nearly all actives have a fitted effect of over 50% in size
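Compounds were scored for reversing the slow growth caused by influenza A NS1 in S. cerevisiae, measured by optical density at 600 nm. Assay medium contained 2% galactose at pH 6.0; NS1-free yeast of the same strain were the positive control.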
RE007 growth inh: less growth of the S. pombe RE007 Vpr strain. S. pombe RE007 Vpr strain, BacTiter-Glo ATP luminescence, 24 h; control for the full effect not named in the record. Potency, µM (doses to about 92.2 µM), without a hit: at the highest dose activity change, negative = less growth. 0.21% of 360,000 active; active = well fitted falling curve with a large enough effect; inconclusive = small, poorly fitted or top-dose-only effect; inactive = no such curve, though single readings can be large or run the other way;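 further: on the % scale 0 is the no-effect control and ±100 the full control effect; nearly all actives have a fitted effect of over 50% in size; the assay follows cell death caused by Vpr and the record does not say whether a fall means rescue or toxicity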
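Fission yeast RE007 carrying one integrated HIV-1 vpr copy, seeded at OD 0.01 in PMG+AL medium with 23 nL pinned compound. Grown 24 h at 30 degrees; viability read by BacTiter-Glo luminescence after 5 min.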
Cruzain inh Det: cruzain (T. cruzi) inhibition with detergent; purified cruzain, Z-FR-AMC fluorescence, 0.01% Triton; Potency, µM, without a hit: max response, negative = inhibition, hits mostly inhibitors; 0.43% of 200,000 active; active means well fitted curve in the direction sought with a large enough effect; inconclusive means small, poorly fitted or top-dose-only effect, or another doubt; inactive means no such curve, though single readings can be large; an effect the other way counts as inactive or inconclusive;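 further: plate controls were neutral wells for no effect and buffer without enzyme for full effect; nearly all actives have a fitted effect of over 40% in size; top concentration of the series not given in the record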
Target sequence (P25779 123-467 limits assumed): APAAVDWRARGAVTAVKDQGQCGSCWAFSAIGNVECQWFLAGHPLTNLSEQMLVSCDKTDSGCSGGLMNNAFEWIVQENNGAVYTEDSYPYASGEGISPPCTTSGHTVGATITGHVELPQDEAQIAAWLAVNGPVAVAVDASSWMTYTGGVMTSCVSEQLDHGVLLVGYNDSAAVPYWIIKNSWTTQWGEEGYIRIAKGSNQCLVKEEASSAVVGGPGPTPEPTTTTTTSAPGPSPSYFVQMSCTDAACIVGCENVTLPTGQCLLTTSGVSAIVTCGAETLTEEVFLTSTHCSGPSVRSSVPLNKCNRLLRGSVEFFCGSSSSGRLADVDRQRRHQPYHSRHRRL
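Read-out: AMC fluorescence (360 nm excitation, 450 nm emission), four reads over 2 min, first-to-third difference used. Conditions: cruzain 1.5 nM, Z-FR-AMC 2 uM, pH 5.5 acetate, 5 mM DTT, 0.01% Triton X-100.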
SARS PLP yeast: inhibitors of SARS-CoV papain-like protease in yeast. S. cerevisiae expressing SARS-CoV PLpro, growth rescue; control for the full effect not named in the record. Potency, µM (highest dose often 32.9 µM), for inactives: top-dose activity, positive = growth rescue. 0.19% of 330,000 active; further: 0% is about no effect; nearly all actives have a fitted effect of over 55% in size; growth read by luminescence after 48 h
LASV entry inh: inhibitors of Lassa virus binding or cell entry | 1.2% of 300,000 active | Potency, µM (top dose mostly 37.9 µM), inactives show at the highest dose activity change, negative = inhibition, hits mostly inhibitors | Lassa virus pseudotype entry inhibition, cell reporter; control for the full effect not named in the record | AID 540256; active means well fitted inhibition curve with a large enough effect; inconclusive means small, poorly fitted or top-dose-only effect, or effect the other way; inactive means flat fitted curve, though single readings scatter; tested in HEK293 cells; further: on the % scale 0 is the no-effect control and ±100 the full control effect; nearly all actives have a fitted effect of over 50% in size; luciferase read-out
StopGo reporter: FMDV 2A StopGo reporter, luciferase signal. human cells with a luciferase reporter of 2A StopGo recoding; control for the full effect not named in the record. Potency, µM (highest dose often 57.9 µM), inactives show at the top dose signal change, negative = less light. 1.2% of 410,000 active. AID 1159524; active = well fitted falling curve with a large enough effect; inconclusive = small, poorly fitted or top-dose-only effect; inactive = no such curve, though single readings can be large or run the other way; tested in HEK293T cells; further: on the % scale 0 is the no-effect control and ±100 the full control effect; nearly all actives have a fitted effect of over 45% in size; luciferase light after 4 h
Cruzain noTriton: cruzain (T. cruzi) inhibition without detergent | P25779 | purified cruzain, Z-FR-AMC fluorescence, no detergent | Potency, µM, for inactives: max response, negative = inhibition, actives largely listed as inhibitors | 2.3% of 200,000 active | AID 1476; active means well fitted curve in the direction sought with a large enough effect; inconclusive means small, poorly fitted or top-dose-only effect, or another doubt; inactive means no such curve, though single readings can be large; an effect the other way counts as inactive or inconclusive;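 further: plate controls were enzyme without inhibitor for no effect and buffer without enzyme for full effect; nearly all actives have a fitted effect of over 40% in size; top concentration of the series not given in the record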
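Detergent-free condition (0.00005% Triton X-100) in acetate buffer pH 5.5 with DTT. 1.5 nM enzyme and compound were pre-mixed 15 min, then 2 uM Z-FR-AMC substrate added; reaction progress from fluorescence change between first and third reads (60 s).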
MARV entry inh: inhibitors of Marburg virus binding or cell entry; Marburg virus pseudotyped entry inhibition, cell reporter; control for the full effect not named in the record; about a third of the inactives were read at about 46 µM; Potency, µM (titrated, usually from 37.8 µM), for inactives: at the top dose activity change, negative = inhibition, usual class: inhibitors; 1.8% of 300,000 active; active = well fitted inhibition curve with a large enough effect; inconclusive = small, poorly fitted or top-dose-only effect, or effect the other way; inactive = flat fitted curve, though single readings scatter; tested in HEK293 cells; about a fifth of its hits are not listed in these tables; further: on the % scale 0 is the no-effect control and ±100 the full control effect; luciferase read-out
* = called active by the depositor; ? = inconclusive; . = not tested or not shown; & = joins results of further samples; [ ] = remark or other dose. Unless noted, the call rests on the fitted dose curve; in most records, active means well fitted rising curve with a large enough effect; inconclusive means small, poorly fitted or top-dose-only effect; inactive means no such curve, though single readings can be large or run the other way. Potency means the concentration at half of the fitted maximal effect.

SMILES	NS1 inh	RE007 growth inh	Cruzain inh Det	SARS PLP yeast	LASV entry inh	StopGo reporter	Cruzain noTriton	MARV entry inh
CCCCCC(=O)Nc1ccc(C(=O)COC(=O)Cn2cnc3c2c(=O)n(C)c(=O)n3C)cc1	.	4.0%	.	-0.6%	6.3%	19.6%	.	6.7%
Cc1ccc(OCC(=O)Nc2nnc(S(=O)(=O)N3CCC(C)CC3)s2)cc1	0.1%	-5.6%	.	-3.4%	0.9%	-19.2%	.	-1.3%[46.1 µM]
CCOC(=O)c1c(O)c2ccccc2n(-c2ccccc2)c1=O	9.7%	3.1%	3.3%	-4.7%	11.7%	0.1%	-15.8%	-21.4%
O=C(CC1Sc2ncnn2C1=O)Nc1ccccc1 (centres undefined)	-10.1%	-15.2%	4.7%	-26.2%	50.9%[14.3 µM]	-3.2%	-3.5%	7.1%
CCN(CC)C(=O)c1ccc(NC(=O)COc2ccc(-c3nn(C)c(=O)c4ccccc34)cc2)cc1	-12.5%	14.8%	-3.9%	-1.8%	?	-21.7%&-13.8%	?	?
Cc1c(Cl)cccc1NC(=S)NNc1ncc(C(F)(F)F)cc1Cl	-7.0%	4.1%	-6.5%	-5.3%	?	-18.5%	1.9%	20.6µM*
O=C(Nc1ccc2ccccc2c1)c1onc2c1CCCC2	-8.0%	3.55µM*	-2.1%	-6.2%	5.62µM*	-48.6%	0.0%	-25.1%
C/C(=N\N=C(/N)c1nonc1N)c1ccc2c(c1)OCO2	-0.6%	-3.0%	.	0.0%	.	29.8%	.	.
COc1ccc(-c2cc(C(=O)N3CCN(c4ccccc4)CC3)no2)cc1	-29.8%	23.9%	-7.9%	-3.3%	?	-46.9%&0.0%	-2.3%	?
CC1CCc2c(sc(NC(=O)CCCn3cnc([N+](=O)[O-])n3)c2C(N)=O)C1 (centres undefined)	.	7.1%	.	9.7%	6.2%[46.1 µM]	-3.7%	.	17.9%[46.1 µM]
CC(=O)c1c(C)[nH]c(C(=O)OCC(=O)Nc2cc(Cl)ccc2[N+](=O)[O-])c1C	16.0%	7.4%	-5.9%	-1.1%	.	28.2µM*	12.5%	-2.3%
CCCCC(=O)NC(c1ccc(N(C)C)cc1)c1ccc2cccnc2c1O (centres undefined)	-87.6%	-18.1%	.	?	?	9.9%	.	?
COc1ccc(-c2nnc(SCC(=O)N3CCc4ccccc4C3)o2)cc1	-47.5%	-1.1%	1.8%	-10.3%	-1.1%	-1.6%	-2.2%	-20.9%
Cc1ccc(-c2noc(CCC(=O)NC3CCCC3)n2)cc1	-29.1%	12.8%	.	-5.6%	?	-9.1%	.	?
Nc1ncccc1OCc1ccc(Br)cc1	.	-0.4%	.	0.9%	18.4%	25.5%	.	-0.8%[46.1 µM]
O=C(c1ccc(CSc2nc3ccncc3n2Cc2cccc(F)c2)cc1)N1CCCCC1	.	.	-6.2%	.	-2.7%[46.1 µM]	-8.7%	7.0%	-1.9%[46.1 µM]
O=C(COc1ccc(S(=O)(=O)NC2CCCCC2)cc1)NCc1ccccn1	-6.1%	-14.2%	3.8%	-0.6%	7.9%	.	-2.8%	3.4%
CN1C(=O)NC(c2ccccc2)C2=C1CN(c1ccc3ccccc3c1)C2=O (centres undefined)	3.9%	-4.4%	-6.4%	0.1%	-9.3%	?	?	-5.6%
CCn1cc(C2=NOC(C(=O)Nc3ccc4c(c3)OCO4)C2)c(C)n1 (centres undefined)	-1.5%	-1.2%	2.0%	0.9%	-25.2%	-14.5%	-7.6%	4.3%
CCOc1ccccc1NC(=O)C1CCN(S(=O)(=O)c2ccc3c(c2)CC(C)N3C(C)=O)CC1 (centres undefined)	.	.	0.3%	.	23.2%[46.1 µM]	-19.9%	13.0%	.
CC(C)(C)c1ccc(-c2noc(CNC(=O)c3ccco3)n2)cc1	-9.8%	-2.2%	.	-7.0%	-7.8%[46.1 µM]	12.8%	.	?
C=CCn1c(COc2ccc(Cl)cc2)nnc1SCC(=O)N/N=C/c1cccc(O)c1	10.3%	4.5%	-1.7%	0.7%	-9.9%	?	6.1%	24.4%
CC1=C(c2ccc(C)cc2)S(=O)(=O)N(Cc2ccc(C(=O)NCc3ccccc3F)cc2)C1=O	.	.	-4.0%	.	-0.6%[46.1 µM]	-17.1%	?	.
COC(=O)c1cc(C(=O)Nc2ccc(S(=O)(=O)NC(C)(C)C)cc2)cc([N+](=O)[O-])c1	29.4%	0.6%	-9.6%	-0.2%	?	-13.3%	1.7%	18.0%
Cn1c(N)c(C(=O)COC(=O)Cc2ccsc2)c(=O)n(C)c1=O	4.3%	-14.4%	3.7%	1.0%	?	11.4%	3.6%	-2.9%

The listing continues.
SMILES	NS1 inh	RE007 growth inh	Cruzain inh Det	SARS PLP yeast	LASV entry inh	StopGo reporter	Cruzain noTriton	MARV entry inh
O=C1NC(=O)C(=Cc2ccc(-c3ccc(F)cc3O)o2)C(=O)N1	5.2%	8.6%	.	7.0%	.	?	.	.
CC(=O)N1CCOc2ccc(S(=O)(=O)N3CCC(C(=O)NCc4ccc(F)cc4)CC3)cc21	-3.7%	19.5%	.	-2.2%	20.9%[46.1 µM]	-11.1%	.	0.0%[46.1 µM]
CCOc1ccccc1C1C(C(=O)Nc2ccccc2OC)=C(C)Nc2nnnn21 (centres undefined)	-9.6%	0.1%	0.5%	-7.0%	8.2%	-8.7%	17.1%	18.2%
CCN(CC)S(=O)(=O)c1ccc(Cl)c(C(=O)OC2CC(C)OC2=O)c1 (centres undefined)	7.0%	-17.8%	.	-0.5%	4.6%	0.1%	.	11.5%
Nc1ccc(CSc2ccc(Cl)cc2)c(Cl)c1	.	29.0%	.	.	?	5.5%	.	?
C=CCn1cc(C=C2C(=O)NC(=O)NC2=O)c2ccccc21	?	-9.9%	.	0.3%	-6.1%	-25.3%	.	?
CCC(=O)N1CCN=C1SCc1ccc(F)cc1	-7.2%	-6.3%	0.1%	1.5%	.	0.0%	-4.9%	1.1%
CCOC(=O)N1CCN(S(=O)(=O)c2ccc(C(=O)Nc3nc4ccc(F)cc4s3)cc2)CC1	14.1%	-5.2%	-0.5%	0.6%	-2.0%	?	12.1%	-10.5%
O=C(NCCc1ccc(Cl)cc1)C1CCN(S(=O)(=O)c2ccc(Br)s2)CC1	.	-11.4%	.	-0.4%	-15.7%	-16.0%	.	-20.8%[46.1 µM]
CN1CCN(C(=O)/C(=C/c2cn(S(=O)(=O)N(C)C)c3ccccc23)NC(=O)c2ccccc2Cl)CC1	2.5%	-15.8%	.	3.5%	.	6.7%	.	.
Cc1ccc(NC(=O)N2CCN(c3ccc(Cl)c(Cl)c3)CC2)cc1	.	.	-8.7%	.	29.5%[46.1 µM]	?	?	?
O=C(c1ccccc1F)N(Cc1ccccc1)Cc1ccccc1	-0.6%	18.8%	.	0.2%	-11.6%[46.1 µM]	-5.4%	.	-0.1%[46.1 µM]
COc1cc(NC(=O)CCC(=O)c2cccs2)cc(OC)c1	4.5%	-22.6%	.	-0.6%	-1.6%	18.5%	.	1.2%
CC(=O)Nc1ccc(NC(=O)CN(c2cccc(C)c2)S(C)(=O)=O)cc1	1.5%	-7.2%	5.6%	-2.2%	-9.6%	-10.1%	-3.2%	-24.5%
Cc1nn(C)cc1S(=O)(=O)N1CCN(Cc2cccc(Cl)c2)CC1	2.9%	-19.0%	.	0.8%	-2.0%	6.1%	.	2.8%[46.1 µM]
Cc1ccnc(NC(=O)C2CCN(S(=O)(=O)c3ccc(Cl)c(C(F)(F)F)c3)CC2)c1	.	-12.7%	.	0.0%	4.3%[46.1 µM]	-12.6%	.	?
CCOC(=O)c1cc(-c2ccc([N+](=O)[O-])cc2)nc2c1c(=O)[nH]c(=O)n2Cc1ccccc1	5.1%	-0.1%	.	3.0%	22.7%[46.1 µM]	-2.9%	.	6.9%[46.1 µM]
CC(NC(=S)Nc1ccccc1Cl)C(c1cccs1)N1CCCC1 (centres undefined)	-13.2%	-11.4%	3.0%	-21.7%	12.9%	18.4%	-2.9%	?
COc1ccc(NC(=O)c2ccccc2Cl)cc1NC(=O)CN1CCOCC1	-9.6%	3.3%	0.2%	8.2%	-9.6%	9.1%	-0.1%	-25.2%
N#Cc1ccccc1Cn1c(=O)n(Cc2ccc(C(=O)NCc3ccco3)cc2)c(=O)c2sccc21	1.0%	-1.7%	-4.1%	1.3%	-6.5%	12.2%	?	10.6%&10.6%
COC(=O)CNC(=O)Cn1nc(C)c([N+](=O)[O-])c1C	.	2.1%	.	4.9%	-3.0%	-4.5%	.	6.6%[46.1 µM]
C/C=N\NC(=O)COc1cc(C)ccc1C	-0.3%	4.9%	.	-0.8%	23.7%	-5.6%	.	-6.8%[46.1 µM]
Cc1cc(C)n(C(=O)CN(C)S(=O)(=O)c2ccc([N+](=O)[O-])cc2)n1	1.0%	5.2%	.	-1.1%	.	-21.6%	.	.
COc1ccc(C(=O)Nc2ccc3c(c2)nc(CCNC(C)=O)n3C)cc1	-10.1%	12.9%	7.0%	-3.2%	1.5%	3.3%	-1.6%	?
CC(C)NC(=O)c1ccccc1NC(=O)/C=C/c1ccc([N+](=O)[O-])cc1	-3.3%	2.0%	5.3%	-6.8%	23.5%	14.7%	-5.3%	-8.1%
C=CCn1c(SCC(=O)N(CCOC)c2c(N)n(CC(C)C)c(=O)[nH]c2=O)nc2ccccc21	.	-1.5%	.	1.9%	?	-20.3%	.	25.6%
COc1ccc(CCN(C)C2CCCN(S(=O)(=O)N(C)C)C2)cc1OC (centres undefined)	.	-7.7%	.	.	8.2%[46.1 µM]	24.0%	.	-3.2%[46.1 µM]
CCCNS(=O)(=O)c1cc(Cl)ccc1OC	0.5%	-16.0%	.	-0.2%	-3.1%	89.3%[activator]	.	-14.6%[46.1 µM]
COc1ccc(C(=O)c2c[nH]c(C(=O)NCCCN3CCOCC3)c2)cc1	4.8%	8.3%	.	-2.0%	?	0.1%	.	?
CCOC(=O)N1CCN(C(=O)CCCOc2ccccc2)CC1	-2.3%	-15.2%	6.2%	0.4%	?	26.4%	-2.0%	?
